# MLL AF4-AF9 inh: blocks AF4 peptide binding to human AF9 | inhibition, % at 10 µM | P42568 | AlphaScreen, biotin-AF4 peptide binding to FLAG-AF9 | 350,000 tested, 0.47% active;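 active = every replicate reaching a set inhibition limit, whatever the replicate mean, cut at about 25% in these data; inconclusive = mean inhibition reaches that limit but some replicates miss it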;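 also: 0% = plate neutral control median and 100% = total signal loss; the record names both 10 and 1 µM as test concentration; the first replicate is given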
# Target sequence (P42568 whole entry, looked up): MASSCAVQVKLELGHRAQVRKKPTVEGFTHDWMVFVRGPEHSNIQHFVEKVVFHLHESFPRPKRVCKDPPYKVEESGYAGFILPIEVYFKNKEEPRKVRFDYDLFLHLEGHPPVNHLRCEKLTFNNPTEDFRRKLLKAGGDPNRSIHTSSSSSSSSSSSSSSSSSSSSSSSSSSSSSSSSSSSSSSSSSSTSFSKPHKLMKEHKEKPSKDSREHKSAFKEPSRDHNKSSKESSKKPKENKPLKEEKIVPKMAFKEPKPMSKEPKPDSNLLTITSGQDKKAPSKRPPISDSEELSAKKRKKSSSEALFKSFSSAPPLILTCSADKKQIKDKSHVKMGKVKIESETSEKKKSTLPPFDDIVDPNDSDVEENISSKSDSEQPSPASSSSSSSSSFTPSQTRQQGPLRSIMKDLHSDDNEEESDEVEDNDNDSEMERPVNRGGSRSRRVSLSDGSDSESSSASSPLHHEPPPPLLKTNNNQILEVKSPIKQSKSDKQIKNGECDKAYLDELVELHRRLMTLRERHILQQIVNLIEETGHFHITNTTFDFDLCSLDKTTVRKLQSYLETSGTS
# T cruzi repl: T. cruzi replication inhibition. T. cruzi beta-gal in NIH3T3, luminescence, 90 h. inhibition, % (test concentration not listed). 300,000 tested, 1.4% active. AID 1885;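 active = mean inhibition across valid replicates above about 55%, limit read from the data; inconclusive = mean below that limit but half or more replicates reach it; inactive = mean below it, under half of replicates reach it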;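 also: signal also drops with host cell toxicity which is not excluded here; 0% = plate median of DMSO wells and 100% = zero luminescence signal; higher percent means less beta-gal luminescence so fewer parasites; stock transfer was 50 nL into about 50 µL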
# RanGTP-Imp inh: inhibitors of RanGTP-importin-beta interaction, primary screen, biochemical, FRET, CFP-Ran, YFP-importin-beta, homogeneous; cell-free CFP-Ran/YFP-importin-beta FRET ratio; inhibition, % (concentration not given with the values); 300,000 tested, 1.1% active; AID 2216;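 active = most replicates above 15%; inconclusive = exactly half above 15%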;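 also: 0% = DMSO wells and 100% = Ran loaded with GDP instead of GTP; wells of about 40 µL received 100 nL stock; the first replicate is given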
# Vif A3G: inhibitors of Vif binding to APOBEC3G peptide, primary screen, biochemical, TR-FRET, GST-Vif 1-94, biotin-A3G peptide, dose response retest (AID 1117319). 260,000 tested, 0.57% active. inhibition, %, or IC50 in µM where a hit was titrated. TR-FRET GST-Vif / biotin-A3G peptide binding; higher % means a stronger effect; test concentration not given here; strong numbers were not always called active;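 active = above the screen mean plus three standard deviations and confirmed in dose response; inconclusive = results disagree or hit not tested in dose response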;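 also: Vif residues 1-94 fused to GST binding biotinylated APOBEC3G peptide 110-148; 0% = full assay without inhibitor and 100% = GST in place of GST-Vif; retest series ran down from 100 µM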
# LANA-H2A inh: blocks KSHV LANA binding to histone H2A/H2B. Q9QR71. cell-free LANA-H2A/H2B peptide, fluorescence polarization. inhibition, % (no concentration beside the values). 320,000 tested, 0.6% active. AID 2629; in the data active = inhibition mostly above about 10%, no sharp cut-off; inactive = mostly below about 6.7%;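 also: stock transfer was 7.5 nL into about 10 µL; 0% = median of vehicle wells and 100% = median of positive control wells; one replicate is shown; the record names a cut of 25% in any replicate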
# Calb FLC: C. albicans growth modulation with fluconazole; C. albicans CaCi-2 (fluconazole-resistant clinical isolate) + fluconazole, Alamar Blue growth, 48 h; growth inhibition, % (no concentration beside the values); 300,000 tested, 0.57% active;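 active = most replicates above 75%; inconclusive = exactly half above 75%; inactive = most below 75%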;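 also: all wells also contain fluconazole at 8 µg/ml as a sub-toxic cotreatment; 0% = median of DMSO wells and 100% = median of geldanamycin control wells; wells of about 8 µL received 7.5 nL stock; the first replicate is given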
# A1 inh: inhibitors of the anti-apoptotic protein A1, read as caspase activation. MEF A1-2A-BIM cells, Caspase-Glo 3/7 luminescence, 3 h; percent of clofoctol response, vehicle zero. AID 2462. 330,000 tested, 0.066% active. caspase activation, % (no concentration beside the values);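 active = over half of replicate activation scores above 10%, or exactly half above 10 with the replicate mean above 10; inconclusive = replicate mean below 10 yet half the replicates above 10; inactive = over half of replicates below 10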;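 also: wells of about 30 µL received 50 nL stock; many hits fall short of the cut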
# Beta cell apopt: beta cell apoptosis inhibition; 300,000 tested, 0.8% active; INS-1E cytokine-induced death, ATP luminescence, 48 h; percent of positive-control rescue, neutral wells zero; AID 435005; protection from apoptosis, % (test concentration not listed);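 active = all replicates at 75% or more, or half of them and the mean; inconclusive = half reach 75% but not the mean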;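 also: 0% = cytokine-treated negative control wells and 100% = positive control rescue; higher means more ATP so stronger rescue from cytokine killing; wells of about 40 µL received 100 nL stock; the first replicate is given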
# Starred values were filed as active, the others as inactive; ? = inconclusive; . = not tested or not shown. Rows were taken by chance; any-hit rate near 4.3%.
# Sample of the layout:
SMILES,MLL AF4-AF9 inh,T cruzi repl,RanGTP-Imp inh,Vif A3G,LANA-H2A inh,Calb FLC,A1 inh,Beta cell apopt
CCOC(=O)c1c(C)[nH]c(C(=O)OCC(=O)N(C)C2CCS(=O)(=O)C2)c1C (stereo not drawn),.,0.9,1.2,21.8%,10.4,-0.2,0.0,-0.2
CCOc1cccc(OCCCCn2ccnc2)c1,.,35.6,4.8,2.8%,-1.6,-2.9,0.5,-1.9

# Results (from the top)
SMILES,MLL AF4-AF9 inh,T cruzi repl,RanGTP-Imp inh,Vif A3G,LANA-H2A inh,Calb FLC,A1 inh,Beta cell apopt
CCOC(=O)c1c(C)[nH]c(C(=O)OCC(=O)N(C)C2CCS(=O)(=O)C2)c1C (stereo not drawn),.,0.9,1.2,21.8%,10.4,-0.2,0.0,-0.2
CCOc1cccc(OCCCCn2ccnc2)c1,.,35.6,4.8,2.8%,-1.6,-2.9,0.5,-1.9
O=S(=O)(c1ccccc1)N1CCN=C1SCc1ccc(Cl)c(Cl)c1,.,33.1,-4.2,15.8%,-3.4,-13.7,0.1,2.5
CCOC(=O)N1CCN(C(=O)C2CCN(C(=O)c3ccc(C(C)(C)C)cc3)CC2)CC1,-1.2,-2.5,1.1,.,-2.7,-3.8,1.0,1.7
COC(=O)C1C(C(=O)OC)C1(c1ccccc1)c1ccccc1 (stereo not drawn),1.1,-7.5,1.9,-9.8%,2.6,0.4,0.3,-0.4
N#CC1=C2SC=C(c3ccc(Br)cc3)N2CCCC1=O,7.6,-6.1,0.3,-2.1%,-0.2,24.7,-1.5,12.9
O=C(CN1CCOCC1)NCCNS(=O)(=O)c1ccccc1,-1.3,-7.4,3.0,-3.1%,3.9,5.9,?,-3.4
Cc1ccc(S(=O)(=O)N2CCCCC2)cc1,-18.8,1.6,1.9,-0.6%,2.5,0.1,-0.5,-2.1
O=C(O)CCNS(=O)(=O)c1ccc2ccccc2c1,.,-2.5,1.6,18.9%,6.1,-3.4,-0.4,-6.4
COc1ccc(S(=O)(=O)N(C)CC(=O)Nc2cccc(C(C)=O)c2)cc1,-3.5,-3.4,-1.5,15.0%,1.6,3.6,0.5,-8.7
OC(c1ccccc1)c1nc2ccccc2s1 (stereo not drawn),.,4.3,-2.0,2.6%,-0.7,1.5,-0.5,.
COc1ccc(-c2oc3ccc(N4CCOCC4)cc3c2/C=C/c2ccc(OC)c(OC)c2)cc1,-21.4,41.1,0.6,.,2.3,-16.3,-0.4,-0.7
O=C(CSc1nncs1)NC1CCCc2ccccc21 (stereo not drawn),-1.0,-26.4,1.1,-3.9%,1.9,-10.1,0.7,-5.8
Cc1cc2cc(C)c(NCCNC(=O)c3cccs3)nc2cc1C,-3.2,14.5,0.2,2.3%,2.8,10.9,0.3,16.8
CCOC(=O)C1(Cc2ccc(Cl)cc2)CCN(Cc2ccon2)CC1,2.3,19.6,-1.1,3.8%,-2.5,-11.2,0.8,1.6
O=C(CNC(=O)c1cccs1)OCc1c(F)cccc1Cl,-13.0,0.9,-2.3,1.8%,6.9,-8.9,0.4,-6.4
NS(=O)(=O)c1ccc(NC(=O)COC(=O)CCc2c[nH]c3ccccc23)cc1,1.2,-6.7,-3.0,5.2%,2.1,1.9,1.2,-4.5
NC(=S)N/N=C/c1ncc(C(F)(F)F)cc1Cl,.,17.1,?,3.7%,6.0,-0.3,0.1,64.7
Cc1cc(/C=C2\C(=N)N3N=C(C(C)C)SC3=NC2=O)c(C)n1Cc1ccccc1,-0.6,-7.9,1.0,8.1%,3.1,-9.3,0.6,-1.8
O=C(NCCc1ccc(Cl)cc1)c1ccc(NC2=NC3CS(=O)(=O)CC3S2)cc1 (stereo not drawn),6.3,-11.6,5.3,.,0.4,5.2,.,-6.1
CCc1ccc(OCC(=O)O/N=C(\N)c2ccncc2)cc1,-0.9,-10.9,1.7,.,0.4,-0.5,-1.0,-6.0
COc1ccc(NC(=O)C2CC(=O)N=C(N)S2)cc1 (stereo not drawn),0.0,-0.5,1.4,-4.5%,-3.0,22.3,0.7,-5.0
COc1ccc(-n2c(=S)[nH]c3cc(C(=O)Nc4cc(OC)c(OC)c(OC)c4)ccc3c2=O)c(OC)c1,6.0,-11.5,2.4,.,-2.6,-8.3,-0.1,6.1
COc1ccc(/C=N/NC(=O)c2cccc(Br)c2)cc1COc1ccccn1,-1.7,-15.4,-3.3,-5.5%,-5.1,2.9,0.2,-4.9
CCC1(C)CC(=O)N(c2ccc(C(=O)O)c(O)c2)C1=O (stereo not drawn),.,-0.3,9.0,4.1%,0.7,.,0.4,-2.2
COc1cc(NC(=O)CN2CCN(c3ccccc3)CC2)c(C)cc1[N+](=O)[O-],.,-11.1,-6.4,.,-1.3,-4.9,0.0,0.0
Cc1cc(-c2c(C(=O)N3CCOCC3)c(C)nn2-c2cccc(C(F)(F)F)c2)no1,-0.3,2.9,0.7,-1.7%,-7.4,-0.2,0.5,.
Cc1cc(C)n2nc(SCC(=O)Nc3c(C)nn(-c4ccccc4)c3C)nc2n1,.,-6.7,8.7,14.8%,-0.7,-19.9,-0.1,1.1
Cc1ccc(C(=O)Nc2nc(-c3ccc(F)cc3)cs2)o1,-1.5,6.6,8.6,.,-6.3,-13.0,-0.7,6.1
COc1ccc(-n2ncc3c(=O)n(CC(=O)OCc4ccccc4)cnc32)cc1,.,-17.8,-1.8,20.0%,0.5,4.0,0.1,-5.3
CCCCN=C1NN=C(c2ccc3c(c2)OCCO3)CS1,3.6,17.5,-0.1,.,-0.6,-0.7,-4.1,.
COc1ccc(CC(=O)Nc2nnc(SCc3ccccc3)s2)cc1S(=O)(=O)N1CCOCC1,.,-1.5,1.8,7.7%,0.7,-9.0,0.4,-3.3
Cc1cccc(C(=O)Nc2c(C(=O)N3CCN(C)CC3)cnn2-c2ccccc2)c1,-3.3,-12.6,1.0,.,1.6,-3.2,-3.1,-0.3
COc1ccc(N(C(=O)c2ccccc2)S(=O)(=O)c2cccs2)cc1,-0.7,13.2,-3.2,15.3%,4.5,49.5,0.5,5.9
c1ccc2c(c1)[nH]c1nc3nncn3nc12,-14.6,-14.0,2.6,5.0%,7.2,0.3,0.2,-1.5
O=C(NCCO)C(=O)NCC1CCCN1S(=O)(=O)c1cccs1 (stereo not drawn),0.5,-6.4,-2.6,-8.3%,-4.4,-2.9,1.4,-6.4
NC(=NCCc1ccccc1)c1cccc([N+](=O)[O-])c1,1.1,4.6,-3.6,.,0.9,-0.5,0.4,-5.5
Cc1cc(C(=O)CSc2nnc(Nc3ccccc3)s2)c(C)n1CC1CCCO1 (stereo not drawn),.,6.2,-5.2,-7.4%,-2.8,-2.2,-1.4,2.5
COc1cc([N+](=O)[O-])cc(/C=N/NC(=O)C(C)Nc2cccc3ccccc23)c1O (stereo not drawn),3.9,-21.4,-3.0,.,0.2,-2.9,-0.4,22.9
Cc1ccc2nc(NC(=O)C3CCCN(S(=O)(=O)c4cccnc4)C3)sc2c1 (stereo not drawn),-1.2,33.3,-5.4,0.9%,-0.6,-0.5,-0.2,0.8
O=C(NN=Cc1ccc(F)cc1)c1cccc(S(=O)(=O)N2CCCC2)c1,3.1,.,.,.,2.4,.,-2.0,-3.0
CCc1cc(C(=O)N2CCCC(CO)(Cc3ccc(F)cc3)C2)n(C)n1 (stereo not drawn),1.1,-8.9,-1.3,.,-5.5,-2.4,0.4,1.1
Cc1ccc(CSCC(=O)N2CCOCC2)cc1,.,19.6,-0.6,-2.5%,3.1,3.8,0.8,-6.4
O=C(NC1CCC(O)CC1)c1ccc(-c2ccc(Cl)cc2)o1 (stereo not drawn),0.6,-6.0,0.2,-3.8%,1.8,2.9,0.1,4.0
Oc1ccccc1C1=NCCNC(C(F)(F)F)=C1,-0.5,2.4,?,17.2%,0.7,13.8,-0.6,1.1
Cc1cccc(-n2ncc3c(N4CCOCC4)ncnc32)c1,-2.4,4.2,1.2,.,-4.9,-12.7,-6.4,0.6
CC(C)OC(=O)CSc1nc(-c2ccc(F)cc2)cc(C(F)(F)F)n1,.,10.8,-0.1,-0.3%,-6.3,-7.1,0.3,4.5
COc1cc(OC)c(NC(=O)c2ccccc2F)cc1Cl,-1.0,8.9,3.8,1.9%,1.0,1.2,-0.3,-3.1
CC(=O)Nc1c2c(nn1-c1ccccc1C)CS(=O)(=O)C2,3.3,7.1,0.5,-1.6%,4.5,-17.9,0.6,.
O=C(/C=C/c1ccccc1)OCCCN=C1NS(=O)(=O)c2ccccc21,0.9,-81.1,0.2,-2.6%,1.9,-5.1,-0.7,.
C/C(=N\NC(=S)NC(C)C)c1ccc(Cl)s1,-2.5,7.3,5.8,11.9%,-5.3,1.5,-0.1,-2.4
COc1cccc(OCC(=O)Nc2ccc(OC)c(OC)c2)c1,.,-2.4,0.4,27.2%,-0.9,-0.4,-0.5,7.0
CN(Cc1ccccc1)C(=O)CSc1cc(=O)n(C)c2ccccc12,1.2,10.7,-4.5,4.9%,1.6,7.4,-0.1,-1.5
COCCn1c(=S)[nH]c2cc(C(=O)N3CCN(c4ccc(F)cc4)CC3)ccc2c1=O,.,3.7,3.5,16.3%,1.6,-1.3,0.6,12.2
COc1cc(NS(=O)(=O)c2ccc(NC(=O)/C=C/c3cccc([N+](=O)[O-])c3)cc2)ncn1,-0.2,4.1,-2.4,.,-6.7,-3.2,-1.0,-4.9
N#C/C(=C(\O)C(F)(F)F)c1nnc2n1CCCCC2,-0.5,-8.0,-1.6,3.7%,1.2,-1.5,0.3,-7.2

# Six structures from above, arranged by formula weight, ascending:
SMILES,MLL AF4-AF9 inh,T cruzi repl,RanGTP-Imp inh,Vif A3G,LANA-H2A inh,Calb FLC,A1 inh,Beta cell apopt
Cc1ccc(S(=O)(=O)N2CCCCC2)cc1,-18.8,1.6,1.9,-0.6%,2.5,0.1,-0.5,-2.1
CCC1(C)CC(=O)N(c2ccc(C(=O)O)c(O)c2)C1=O (stereo not drawn),.,-0.3,9.0,4.1%,0.7,.,0.4,-2.2
Cc1cc(/C=C2\C(=N)N3N=C(C(C)C)SC3=NC2=O)c(C)n1Cc1ccccc1,-0.6,-7.9,1.0,8.1%,3.1,-9.3,0.6,-1.8
Cc1cc(C)n2nc(SCC(=O)Nc3c(C)nn(-c4ccccc4)c3C)nc2n1,.,-6.7,8.7,14.8%,-0.7,-19.9,-0.1,1.1
Cc1ccc2nc(NC(=O)C3CCCN(S(=O)(=O)c4cccnc4)C3)sc2c1 (stereo not drawn),-1.2,33.3,-5.4,0.9%,-0.6,-0.5,-0.2,0.8
COc1cc(NS(=O)(=O)c2ccc(NC(=O)/C=C/c3cccc([N+](=O)[O-])c3)cc2)ncn1,-0.2,4.1,-2.4,.,-6.7,-3.2,-1.0,-4.9
